# Bioassay records (PubChem BioAssay)
# Rango complex inh = qHTS Assay for Inhibitors of Rango (Ran-regulated importin-beta cargo) - Importin beta complex formation. 340,000 compounds, 0.031% hits. Potency, µM (top dose mostly 92.2 µM), for the others: at the top dose inhibition of complex formation. AID 540263, 2011. Rango CFP/YFP FRET sensor + importin beta, 45 min; active = rising FRET ratio curve, often small or poorly fitted; inconclusive = mostly compound fluorescence or quenching in the first reads; inactive = flat curves in all reads;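 also: potency is read from the fitted curve at half-maximal effect; 0% = DMSO wells and 100% = buffer wells lacking importin beta; nearly all actives have a fitted effect of over 15% in size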
# Target sequence (Q14974 whole entry, looked up): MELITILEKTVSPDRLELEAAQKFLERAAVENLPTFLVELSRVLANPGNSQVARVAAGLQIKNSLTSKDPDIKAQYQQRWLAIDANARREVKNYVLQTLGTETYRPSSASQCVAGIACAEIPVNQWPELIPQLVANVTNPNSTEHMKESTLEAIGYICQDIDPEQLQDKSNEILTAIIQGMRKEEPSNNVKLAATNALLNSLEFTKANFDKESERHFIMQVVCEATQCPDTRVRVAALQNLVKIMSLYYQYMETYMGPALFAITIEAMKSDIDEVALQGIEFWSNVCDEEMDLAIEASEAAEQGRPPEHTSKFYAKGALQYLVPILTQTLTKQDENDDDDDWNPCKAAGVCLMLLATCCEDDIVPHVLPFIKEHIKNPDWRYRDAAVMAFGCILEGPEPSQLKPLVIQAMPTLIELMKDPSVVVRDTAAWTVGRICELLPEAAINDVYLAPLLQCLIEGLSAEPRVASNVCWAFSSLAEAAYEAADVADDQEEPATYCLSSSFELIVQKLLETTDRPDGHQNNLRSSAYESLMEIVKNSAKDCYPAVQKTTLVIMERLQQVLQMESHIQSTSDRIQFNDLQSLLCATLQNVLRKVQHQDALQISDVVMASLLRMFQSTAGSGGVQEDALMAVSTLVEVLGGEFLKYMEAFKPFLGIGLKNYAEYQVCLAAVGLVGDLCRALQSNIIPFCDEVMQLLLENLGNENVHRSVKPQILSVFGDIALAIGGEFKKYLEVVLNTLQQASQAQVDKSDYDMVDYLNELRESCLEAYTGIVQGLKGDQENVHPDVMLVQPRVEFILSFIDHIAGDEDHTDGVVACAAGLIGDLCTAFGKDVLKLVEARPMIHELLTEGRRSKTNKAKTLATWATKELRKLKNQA
#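 FRET biosensor (snurportin 1 IBB flanked by EYFP and cerulean), 50 nM, with compound 5 min, then 0.125 microM importin beta in PBS, 1 mM DTT, 0.02% Tween-20, 0.1% BSA. CFP/YFP ratio read after 45 min at room temperature; pre-read flags interference.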
# GLA inh pH 4.5 = qHTS Assay for Inhibitors of Human alpha-Galactosidase at pH 4.5. Alpha-galactosidase A (Homo sapiens), P06280. purified enzyme, 4-MU-alpha-Gal fluorescence, pH 4.5. activity change, negative = inhibition, % at 105 µM. 230,000 tested, under 10 active; inconclusive = small, poorly fitted or top-dose-only inhibition, or a rising curve; inactive = flat fitted curve, though single readings scatter; no compound was filed as active;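 also: 0% = full activity with enzyme and -100% = basal without enzyme; dose as in the result columns while the protocol names 77 µM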
# miR-21 FLuc = qHTS Assay for Modulators of miRNAs and/orActivators of miR-21; AID 2288, 2010; HeLa miR-21 FLuc reporter, luciferase, 48 h; 340,000 tested, under 10 active; Potency, µM (series often up to 38.3 µM), inactives show at the top dose reporter change, positive = more light; active = well fitted rising curve with a large enough effect; inconclusive = small, poorly fitted or top-dose-only effect; inactive = no such curve, though single readings can be large or run the other way;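 also: % of control where 0% means no effect; miR-21 action dims this reporter so a rising signal means less miR-21 action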
#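 Using DMEM plus 10% FBS, HeLa miR-21-FLuc cells are incubated with test compounds (final up to about 40uM) for 48 hours; firefly luciferase signal is then imaged following reagent-mediated lysis.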
# Rango dissoc inh = qHTS Assay for Inhibitors of RanGTP induced Rango (Ran-regulated importin-beta cargo) - Importin beta complex dissociation; 340,000 compounds, 0.071% hits; Biochemical FRET Rango-importin beta, RanGTP-induced dissociation; Snurportin-1 (Homo sapiens) + GTP-binding nuclear protein Ran (Homo sapiens) + Importin …; AID 540253, 2011; Potency, µM (highest dose often 46.1 µM), for the others: top-dose activity change, negative = inhibition; active means falling FRET ratio curve, often poorly fitted, with flat reads before Ran was added; inconclusive means other falling curves, or compound fluorescence or quenching; inactive means flat or rising ratio curve;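 also: potency is read from the fitted curve at half-maximal effect; % of control where 0% means no effect; nearly all actives have a fitted effect of over 45% in size; -100% = wells without RanGTP and RCC1; the record marks most hits as doubtful in a second field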
#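 Compounds sat 5 min at room temperature with 0.1 uM Rango biosensor plus 0.25 uM importin beta, then FRET pre-read. RanGTP-RCC1 (0.6 uM Ran, 2mM GTP, 0.2 uM RCC1) added for 45 min, and the CFP/YFP post-read measured blocked complex dissociation.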
# An asterisk follows results filed as active; ? = inconclusive; . = no result given; & = joins results of further samples.
# Each structure is followed by: Rango complex inh, GLA inh pH 4.5, miR-21 FLuc, Rango dissoc inh
> COc1cc(/C=N/NC(=O)c2ccc(CN3C(=O)c4cccc5cccc3c45)cc2)cc(OC)c1O
→ ?, -16, -6%, ?
> CC(C)c1ccc(NC(=O)COC(=O)c2nn(C)c(=O)c3ccccc23)cc1
→ ?, ., ., -6%
> O=C(Nc1ccccc1C(F)(F)F)C1CCN(C(=O)c2cccs2)CC1
→ 2.3%, ., -1%, 3%
> CCc1ccc(C2C(=O)c3ccccc3C2=O)cc1
→ -0.1%, ., ., 3%
> Cc1ccc(Nc2nnc(SCC(=O)c3ccc(O)cc3O)s2)cc1
→ 0.5%, ., -19%, 0%
> Cc1cc(C(=O)CSc2nnc(N)s2)c(C)n1C1CC1
→ 2.5%, ., ., 8%
> CC(C)(C)OC(=O)NCCCCCNC(=O)c1[nH]cnc1C(=O)Nc1ccon1
→ -8.0%, ., ., 11%
> Cc1ccc(S(=O)(=O)N2CCCCC2)cc1NC(=O)CSc1nncn1-c1ccccc1
→ -0.3%, 0, -2%, -7%
> Cc1ccc(C2=NOC(=O)/C2=C\c2ccccc2)cc1
→ 0.1%, ., ., -18%
> NC(=O)c1ccc(NCC2CCCO2)c([N+](=O)[O-])c1 (stereo unspecified)
→ 0.4%, ., -13%, 7%
> COc1ccc(NC(=O)C(Cc2ccccc2)NC(=O)c2ccco2)cc1OC (stereo unspecified)
→ 2.0%, 1, -11%, 5%
> Cc1onc(-c2ccccc2)c1C(=O)OCCOc1ccccc1F
→ 2.3%, ., 1%, 4%
> CCOc1ccc(NC(=O)Cc2ccccc2)c([N+](=O)[O-])c1
→ -2.2%, 4, -27%, -4%
> CCOC(=O)C1CCCN(C(=O)c2sc3nc(-c4ccc(F)cc4)cn3c2C)C1 (stereo unspecified)
→ 0.1%, 2, -1%, 4%
> CC(C)(C)c1ccc(-c2nn(CCC#N)cc2/C=N/O)cc1
→ 1.6%, 3, -26%, 3%

# 4 entries already listed, arranged by the value under miR-21 FLuc, largest number first.
# Each structure is followed by: Rango complex inh, GLA inh pH 4.5, miR-21 FLuc, Rango dissoc inh
> O=C(Nc1ccccc1C(F)(F)F)C1CCN(C(=O)c2cccs2)CC1
→ 2.3%, ., -1%, 3%
> Cc1ccc(S(=O)(=O)N2CCCCC2)cc1NC(=O)CSc1nncn1-c1ccccc1
→ -0.3%, 0, -2%, -7%
> COc1ccc(NC(=O)C(Cc2ccccc2)NC(=O)c2ccco2)cc1OC (stereo unspecified)
→ 2.0%, 1, -11%, 5%
> CCOc1ccc(NC(=O)Cc2ccccc2)c([N+](=O)[O-])c1
→ -2.2%, 4, -27%, -4%

# The list goes on:
# Each structure is followed by: Rango complex inh, GLA inh pH 4.5, miR-21 FLuc, Rango dissoc inh
> Cn1c(N)c(C(=O)COC(=O)c2cc(-c3ccco3)nc3ccccc23)c(=O)n(Cc2ccccc2)c1=O
→ ., -13&-1, -12%, .
> CC(C)O/N=C1\C(=O)N(c2ccccc2)c2ccccc21
→ -2.2%, 1, -18%, -19%
> Cn1c(=O)n(CC(=O)Nc2ccccc2)c2ccccc21
→ -5.2%, 1, 0%, -7%
> CCOC(=O)Cc1csc(NC(=O)c2sc3nc4cc(C)ccc4cc3c2N)n1
→ ?, -13, -12%, ?
> CC(CN1CCOCC1)OC(=O)C(C)(c1ccccc1)c1ccccc1 (stereo unspecified)
→ -0.7%, -5, -1%, 16%
> O=[N+]([O-])c1ccc(Sc2ccccc2)nc1
→ 3.8%, -15, -7%, -3%
> CCN(c1ccccc1)S(=O)(=O)c1ccc(C(=O)NCCCn2ccnc2)cc1
→ -2.2%, -13, 1%, 2%
> COc1ccc(Nc2nc(-c3cccs3)nc3ccccc23)cc1S(=O)(=O)N1CCOCC1
→ 0.9%, ., ., 4%
> COc1cc(/C=N/NC(=O)c2cccc(S(=O)(=O)N3CCCC3)c2)cc(OC)c1O
→ 5.4%, ., ., 6%
> CC1CN(C(=O)Nc2ccc(Br)cc2Cl)CC(C)O1 (stereo unspecified)
→ -2.0%, 3, -5%, -2%
> Cc1ccc(C)c(NC(=O)NCCN2CCCCC2)c1
→ -4.5%, ., 2%, 14%
> COc1ccc(N2CCN(C(=O)Cn3cnc4c3c(=O)n(C)c(=O)n4C)CC2)cc1
→ 2.1%, 3, 0%, 2%
> CC1C/C(=C/c2cccn2C)C(=O)/C(=C/c2cccn2C)C1 (stereo unspecified)
→ ?, -14, 8%, ?
> O=C(NC1CCCCC1)c1cc(S(=O)(=O)N2CCCC2)ccc1Cl
→ 0.6%, ., 6%, 7%
> COc1ccc(/C(C)=N/Nc2cccc(C(=O)O)c2)cc1OC
→ 0.8%, 2, -60%, -12%
> Cc1onc(-c2ccccc2)c1C(=O)Nc1nnc(N2CCCCCC2)s1
→ -3.0%, 2, -3%, -3%
> Nc1ccc(Sc2ccccc2)nc1
→ -4.3%, ., ., 13%
> Cc1ccc(C(=O)C(c2ccccc2)N2Cc3ccccc3C2=N)cc1 (stereo unspecified)
→ 2.2%, -22, 15%, 9%
> CCOc1ccc(NC(=O)CSc2nnc(Cc3ccccc3)c(=O)n2N)cc1
→ ?, ., ., 0%
> CCN(CC)S(=O)(=O)c1ccc(NC2CCN(Cc3ccccc3)CC2)nc1
→ -1.2%, ., 0%, 1%
> CCn1cc(/C=C2/SC(=S)NC2=O)c(C)n1
→ 1.8%, 9, -7%, -10%
> CN1CCN(c2ccc(NC(=O)c3ccc4c(c3)OCCO4)cc2Cl)CC1
→ 1.4%, 6, -41%, 0%
> Cc1ccc([N+](=O)[O-])cc1NC(=O)C1CCCC1
→ 2.2%, ., 1%, 6%
> CC(C)C(=O)Nc1cccc(C(=O)Nc2ccc(S(=O)(=O)N3CCOCC3)cc2)c1
→ -0.1%, ., 0%, -11%
> Cc1cc2nc(/C=C/c3cccnc3)[nH]c2cc1C
→ 2.7%, ., 1%, -9%
> Nc1ccc(Sc2ccccc2CC(=O)O)cc1
→ ., 4, 0%, .
> CC(=O)N1CCc2cc(S(=O)(=O)NCCC(=O)NCCc3ccc(C)cc3)ccc21
→ -4.9%, 2, 18%, 2%
> Cc1ccc(NC(=O)N2C3CCCC2CC(NC(=O)C2CC2)C3)cc1 (stereo unspecified)
→ 2.3%, ., 3%, 33%
> Cc1ccc(CN2C(=O)C(=O)N(CC(N)=O)C2=O)cc1
→ ?, ., -2%, 0%
> Cc1c(NC(=O)CC2NC(=O)NC2=O)c(=O)n(-c2ccccc2)n1C (stereo unspecified)
→ ., 1, 1%, .

# Reprinted at random: 2 entries already listed.
# Each structure is followed by: Rango complex inh, GLA inh pH 4.5, miR-21 FLuc, Rango dissoc inh
> O=C(NC1CCCCC1)c1cc(S(=O)(=O)N2CCCC2)ccc1Cl
→ 0.6%, ., 6%, 7%
> Nc1ccc(Sc2ccccc2)nc1
→ -4.3%, ., ., 13%

# Remaining list, next part
# Each structure is followed by: Rango complex inh, GLA inh pH 4.5, miR-21 FLuc, Rango dissoc inh
> COc1ccccc1CNC(=O)Cn1cc([N+](=O)[O-])ccc1=O
→ -10%, ., -8%, 1%
> Cc1nn(C)c(=O)n1-c1ccc(OCc2ccccc2)cc1
→ 8.2%, -8, -46%, -12%
> COc1ccc(CNc2ccc(S(N)(=O)=O)cc2)cc1
→ 2.4%, 3, -8%, -4%
> CCc1nnc(NC(=O)C2CCN(S(=O)(=O)c3ccc(C)cc3)CC2)s1
→ -1.8%, 3, -1%, 0%
> COc1cccc(/C=C/C(=O)OCC(=O)c2ccc(S(=O)(=O)N3CCCCC3)cc2)c1OC
→ -3.1%, ., ., -1%
> O=C(OC1CCOC1=O)c1ccc(N2CCCC2)c([N+](=O)[O-])c1 (stereo unspecified)
→ 3.7%, 0, -4%, -3%
> Cc1ccnc(NC(=O)CNC(=O)c2ccc(C)s2)c1
→ 3.6%, ., ., 7%
> CCN(C(=O)CSc1nnc(Cc2cccc3ccccc23)n1N)C1CCS(=O)(=O)C1 (stereo unspecified)
→ 1.3%, -1, 0%, 4%
> CCCC(c1nnnn1CCC(C)C)N1CCC(C(N)=O)CC1 (stereo unspecified)
→ -8.5%, 1, -1%, -2%
> O=C(N/N=C/c1ccc2c(c1)OCO2)c1cccc(NC(=O)c2ccccc2Cl)c1
→ 0.2%, ., 6%, -11%
> COc1ccc(C(CNC(=S)NCc2ccccc2)N2CCCC2)cc1 (stereo unspecified)
→ 2.4%, -12, -3%, 10%
> CCN(C(=O)CSc1n[nH]c(-c2ccccc2)n1)c1c(N)n(Cc2ccccc2)c(=O)[nH]c1=O
→ 0.1%, ., ., 8%
> Cc1ccccc1NC(=O)c1cccc(S(=O)(=O)N2CCOCC2)c1
→ 4.2%, ., 0%, -14%
> CCc1cc2c(=O)c(-c3nc4ccccc4n3C)coc2c(CN2CCC(C)CC2)c1O
→ ?, ., 0%, -13%
> CCCc1n[nH]c2c1/C(=N\OCC)CC(C)(C)C2
→ 4.2%, -10, 5%, 3%
> CCC(=O)N1CCc2cc(S(=O)(=O)NCCCOC)ccc21
→ -0.7%, 0, -3%, -5%
> CSCCC(NC(=O)c1cc([N+](=O)[O-])ccc1Cl)C(=O)O (stereo unspecified)
→ 0.5%, -15, -4%, 14%
> CC(CN(C)Cc1ccccc1)OC(=O)c1cccc(F)c1 (stereo unspecified)
→ -3.1%, -2, 5%, -11%
> O=C(CSc1nc(C2CC2)nc2ccccc12)N1CCc2ccccc2C1
→ ., -26, -1%, .
> CS(=O)(=O)NNC(=O)C1Cc2c(ccc3ccccc23)O1 (stereo unspecified)
→ 2.4%, ., -6%, -7%
> CCOc1ccccc1N1C(=O)c2ccc(S(=O)(=O)c3ccc(C(=O)O)cc3)cc2C1=O
→ -1.5%, ., 0%, -4%
> CC(C)(C)N(NC(=O)Nc1ccc(Cl)cc1)C(=O)c1ccccc1
→ 1.6%, -6, -4%, 1%
> CCc1ccc(N2CC(C(=O)OCC(=O)NC3CC3)CC2=O)cc1 (stereo unspecified)
→ 2.2%, ., ., -1%
> COC(=O)N/N=C/c1ccc(-c2ccc(Cl)c(Cl)c2)o1
→ 2.2%, 4, -47%, 2%
> Cc1[nH]c2ccccc2c1CCNC(=O)c1c(N)no[n+]1[O-]
→ -0.6%, 5, 2%, 5%
> O=C(CCc1ccccc1)N/N=C/c1cccc(O)c1
→ 1.4%, -26, -14%, 9%
> Cc1cc(CN2CCN(CC(=O)Nc3cc(Cl)ccc3-n3cncn3)CC2)no1
→ 1.2%, ., ., -3%
> Cc1ccc(NC(=O)CSCc2cc(=O)n3nc(C4CC4)sc3n2)cc1
→ 0.1%, ., -4%, 5%
> Cc1ccc(S(=O)(=O)c2c(N)n(CCN3CCOCC3)c3nc4ccccc4nc23)cc1C
→ 0.6%, 9, 4%, 10%
> COc1cc(C(=O)CCc2ccc3c(c2)OCO3)cc(OC)c1OC
→ ?, ., ., 27%
> CCOC(=O)C1CCN(C(=O)c2cc3c(=O)n4cccc(C)c4nc3s2)CC1
→ ?, ., 7%, -7%
> COCc1ccc(C(=O)N2CCCC(N3CCN(c4ccc(F)cc4)CC3)C2)o1 (stereo unspecified)
→ -0.5%, ., 5%, 8%
> CCCc1c(C(=O)N/N=C/c2c(OC)ccc3ccccc23)nnn1-c1nonc1N
→ -0.8%, ., -1%, 6%
> Cc1[nH]c2ccccc2c1C(=O)C(=O)NCCc1ccc(S(N)(=O)=O)cc1
→ 5.3%, -9, 1%, 12%
> COC(=O)c1nnc(-c2ccccc2)nc1OC
→ 6.9%, -2, -4%, 24%
> C=CCNC(=O)c1c(Cl)nc(C)c([N+](=O)[O-])c1C
→ -0.7%, 11, -9%, 1%
> Cc1cccc(NCc2nc(SCC(N)=O)n[nH]2)c1
→ 0.4%, -1, 2%, -12%
> CCN(CC(=O)Nc1c(F)cccc1F)C(=O)c1ccc2c(c1)NC(=O)C(C)S2 (stereo unspecified)
→ 1.3%, ., ., 1%
> CCCn1c(=O)c(C(=O)Nc2ccccc2)c(O)c2ccccc21
→ -3.2%, -1, -8%, 0%

# Some of the compounds tested; rates above refer to the full screens.
